# Source: PubChem BioAssay (several laboratories)
# MT1-MMP reporter = MT1-MMP gene expression reporter suppression – cell-based, luciferase reporter, luminescence (AID 618); MT1-MMP promoter luciferase reporter cells, luminescence; calls from a first round at 10 µM; hits with a dose series show EC50 in µM; 87,000 tested, 0.62% active;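 active = over half of the reporter light lost at 10 µM or EC50 under 50 µM; inactive = the rest and hits that failed the dose series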;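 note: actives suppress MT1-MMP promoter-driven transcription so potencies describe inhibitors; HT1080 fibrosarcoma cells; overnight exposure; toxic or luciferase-blocking compounds were not removed from the actives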
# WNV protease inh = WNV NS2B-NS3 proteinase inhibition; z-score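 (tested at a level between 10 and 100 µM)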; WNV NS2B-NS3 protease, fluorogenic substrate Ex360/Em465; hits give low values; AID 577; 65,000 tested, 0.18% active; P06935;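 active = z-score at -3 or under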;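 note: score is relative to mean and spread of the compound wells of a plate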
# Target sequence (P06935 1371-1501 limits assumed): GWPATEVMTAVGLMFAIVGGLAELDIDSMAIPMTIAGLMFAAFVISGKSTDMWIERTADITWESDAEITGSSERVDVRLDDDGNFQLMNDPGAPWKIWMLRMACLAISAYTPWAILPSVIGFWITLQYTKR
# Target sequence (P06935 1502-1679 limits assumed): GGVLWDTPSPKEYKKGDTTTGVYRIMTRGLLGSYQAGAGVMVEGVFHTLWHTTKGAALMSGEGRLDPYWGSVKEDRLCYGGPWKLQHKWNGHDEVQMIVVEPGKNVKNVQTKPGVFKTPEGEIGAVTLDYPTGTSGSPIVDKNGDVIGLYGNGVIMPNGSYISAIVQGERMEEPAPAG
# Hsc70 = Hsc70 inhibitors, probe displacement, primary screen, biochemical, fluorescence polarization (AID 568). Hsc70 fluorescence polarization, probe displacement; higher % means a stronger effect; strong numbers were not always called active. 83,000 tested, under 10 active. displacement, % at 20 µM; hits with a dose series show IC50 in µM;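 active = displacement above 50% without optical interference and an IC50 on retest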;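 note: ATPase domain with a fluorescein-tagged ATP probe; 0% = vehicle and 100% = excess ADP; read after one hour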
# An asterisk follows results filed as active; i = inactive; nt = no result given. An excerpt; count on the stated rates, not on these rows.
No.	canonical_smiles	MT1-MMP reporter	WNV protease inh	Hsc70
1	C=C(C)Cn1c(CCNC(=O)CC)nc2ccccc21	i	0.82	2.4%
2	COc1cc(-c2nc3cnccn3c2Nc2ccccc2)ccc1O	i	-1	-1.8%
3	Cc1sc(NC(=O)CSc2nnc(COc3ccccc3)n2C)c(C#N)c1C	i	2.6	-1.1%
4	Cc1ccc(CC(=O)N2CCN(c3cccc(C(F)(F)F)c3)CC2)cc1	i	nt	2.6%
5	COc1ccc2oc(C(F)(F)C(F)F)cc(=O)c2c1	i	nt	1.7%
6	Cc1cc(NC(=O)COC(=O)C2CCN(S(=O)(=O)c3cccc(Cl)c3Cl)CC2)no1	i	nt	0.7%
7	CCOc1ccc(NCC(=O)Nc2ccc(C)cc2C)cc1	i	-0.82	2.6%
8	NC(=O)c1ccc(N2CCCCC2)c(N2C(=O)CCC2=O)c1	i	-0.34	3.8%
9	Cc1nc2ccccc2c(=O)n1/N=C/c1ccncc1	i	-0.77	4.2%
10	Cc1ccc(C(=O)Nc2ccccc2N2CCN(C(=O)C(C)C)CC2)cc1	i	0.05	5.9%
11	FC(F)(F)c1cccc(N2Cc3ccccc3C2)c1	i	0.13	-14%
12	CCOc1ccc(-n2nnc3c(=O)n(CC(=O)c4ccccc4)cnc32)cc1	i	-0.21	1.4%
13	CC1=[N+]([O-])C(N2CCOCC2)C(O)(c2ccccc2)C1 (stereo unspecified)	i	1.1	-2.3%
14	CCc1c(C)nc(N)n2c(SCC(=O)N3CCN(c4ccccc4OC)CC3)nnc12	i	0.05	1.0%
15	COc1cc2c(cc1OC)CN(C(=O)CSc1nc(N)c(C#N)cc1C#N)CC2	i	0.46	2.2%
16	O=C(O)CN1C(=O)CSc2ccccc21	i	0.16	1.5%
17	CCOC(=O)c1sc2nc(NC(=O)c3cccs3)sc2c1C	i	-0.81	-4.1%
18	CCOc1nc(-c2ccc(C)cc2)ccc1-c1noc(COC)n1	i	0.3	-20%
19	COC(=O)C(Cc1cnc[nH]1)NC(=O)C1CCC(=O)N1 (stereo unspecified)	i	-0.22	0.2%
20	COc1ccccc1OCC(=O)N(Cc1nc(-c2ccc(Cl)cc2)no1)C(C)C	i	0.69	1.8%
21	CCCCNS(=O)(=O)c1ccc(S(=O)(=O)n2cnc3ccccc32)cc1	i	nt	-4.7%
22	CC(C)NS(=O)(=O)c1ccc(OCC(=O)Nc2ccc3c(c2)OCCO3)cc1	i	0.06	8.0%
23	Cc1nc(CNS(=O)(=O)c2ccc3ccccc3c2)cs1	i	3	1.4%
24	CC1Cc2ccccc2N1C(=O)CN1C(=O)NC(C)(c2ccc3c(c2)OCCO3)C1=O (stereo unspecified)	i	0.91	2.7%
25	c1ccc2c(c1)OCC(c1csc3ncnc(N4CCCCC4)c13)O2 (stereo unspecified)	i	nt	4.6%
26	O=C(O)CCCC(=O)Nc1nc2n(n1)C(c1ccc(F)cc1)CC(c1ccc(Cl)cc1)N2 (stereo unspecified)	i	-2.1	3.1%
27	CN(C)C(CN1C(=O)C2CC=CCC2C1=O)c1cn(C)c2ccccc12 (stereo unspecified)	i	0.47	-1.1%
28	O=C(C1CCN(S(=O)(=O)N2CCOCC2)CC1)N1CCOCC1	i	0.93	2.4%
29	COc1cc(OC)cc(C(=O)N2CCC(N3CCN(c4ccccc4)CC3)CC2)c1	i	0.47	-3.6%
30	CN1CCCC(OC(=O)CCCCC(=O)OC2CCCN(C)C2)C1 (stereo unspecified)	i	0.2	2.6%
31	COc1ccc(C)cc1NC(=O)c1nc2nc(C)cc(C)n2n1	i	0.43	-1.6%
32	Cc1noc(C)c1C(=O)OCC(=O)c1c[nH]c2ccccc12	i	-0.83	-0.8%
33	CNC(=O)CSc1nnnn1-c1ccc2c(c1)OCCO2	i	nt	-4.1%
34	O=C(CN1C(=O)COc2ccccc21)c1ccc(Cl)cc1	i	1.5	-0.8%
35	Cn1c(Cn2nnc3ccccc32)nnc1SCC(=O)N1CCc2ccccc21	i	1.3	-7.5%
36	COc1ccc(C(C)=O)cc1COC(=O)c1cccc(N(C)C)c1	i	-1.4	3.0%
37	CCOC(=O)c1c(C)[nH]c(C)c1C(=O)CSc1nnc(-c2ccncc2)n1C	i	-0.23	-0.6%
38	OC(CCCCN1CCCCC1)c1ccccc1 (stereo unspecified)	i	0.15	-8.8%
39	O=C(C1CCCN1S(=O)(=O)c1cccc2cccnc12)N1CCc2ccccc2C1 (stereo unspecified)	i	0.58	6.3%
40	CCOc1cc(S(=O)(=O)N(Cc2ccccc2)Cc2ccccc2)c(OCC)cc1-n1cnnn1	i	nt	2.3%
41	COC(=O)CC1Oc2ccc(C)cc2NC1=O (stereo unspecified)	i	-1.4	0.5%
42	O=C(O)CSCc1cn2cc(Cl)ccc2n1	i	nt	-3.1%
43	CCOc1ccccc1NC(=O)CSc1nnc(Cn2c(=O)sc3ccccc32)n1C	i	0.36	0.0%
44	CCOC(=O)C1C(=O)NC(SCC(=O)OC)=C(C#N)C1c1ccccc1OCC (stereo unspecified)	i	0.45	-3.2%
45	Brc1ccc(-c2nn3c(-c4ccncc4)nnc3s2)o1	i	-1.3	-3.2%
46	NC(=O)C1(N2CCCCC2)CCN(S(=O)(=O)c2cc(Cl)ccc2Cl)CC1	i	1.6	1.4%
47	O=C(C1CCCCC1)N1CCCC(c2nc3c(nnn3Cc3ccccc3)c(=O)[nH]2)C1 (stereo unspecified)	i	-1.2	2.1%
48	CC1(C)Cc2c(C#N)c(SCC(=O)c3ccccc3)nc(N3CCCC3)c2CO1	i	-0.41	0.5%
49	COCCCNC(=O)Cn1nc(-c2ccc(C)cc2)ccc1=O	i	-1.4	-2.0%
50	CC(=O)Nc1nonc1-c1nc2ccccc2n1Cc1nnc(C)o1	i	-0.38	1.6%
51	CCC(=O)Nc1cc2c(cc1C(=O)CC)OCCO2	i	nt	-2.5%
52	CCN(CC)CCCNC(=O)c1nn(-c2ccccc2OC)c(=O)c2ccccc12	i	1	-7.7%
53	CC1(C)CC2CC(C)(CN2C(=O)COC(=O)c2cc(Cl)cc(Cl)c2N)C1 (stereo unspecified)	i	nt	2.4%
54	CCOc1nc(SCCOc2ccc(C)cc2)nc(N(C)C)n1	i	0.09	2.6%
55	Cc1nc(SCC(=O)OCc2ccccc2)c2c(=O)n(C)c(=O)n(C)c2n1	i	-0.54	1.9%
56	O=C(CSc1nnc(-c2ccco2)n1Cc1ccccc1)c1ccc(F)cc1	i	-1.5	-1.5%
57	O=C(O)c1cccc(-n2cnnn2)c1	i	-0.22	0.8%
58	CCn1c(SCC(=O)Nc2ccc(NC(=O)c3cccs3)cc2)nnc1-c1cccnc1	i	-0.47	3.1%
59	CCCOc1ccc(C2NC(=O)NC2=O)cc1 (stereo unspecified)	i	0.42	-1.5%
60	COc1ccc(NC(=O)COc2ccc(/C=N/n3c(C)nnc3C)cc2OC)cc1	i	nt	0.6%

# Continued:
No.	canonical_smiles	MT1-MMP reporter	WNV protease inh	Hsc70
61	O=C(O)Cn1nc(-c2ccc(F)cc2)oc1=O	i	0.98	6.9%
62	CCOc1ccc(NS(=O)(=O)c2ccc(NC(=O)C3CCCO3)cc2)cc1 (stereo unspecified)	i	nt	3.6%
63	Cc1ccc(C2(C(F)(F)F)N=C3Sc4cc(C)ccc4N3C(=O)N2)cc1 (stereo unspecified)	i	nt	6.3%
64	COc1cc2c(cc1NC(=O)CN1C(=O)NC3(CCc4ccccc43)C1=O)oc1ccccc12 (stereo unspecified)	i	2.2	-4.3%
65	CCOc1ccc(CC(=O)N2CCN(c3ccc(N4CCOCC4)nn3)CC2)cc1OCC	i	1.5	4.8%
66	COc1cccc(N2CCN(Cc3nc(N)nc(Nc4ccccc4OC)n3)CC2)c1	i	-0.1	1.1%
67	CCOC(=O)CCSc1nc(-c2ccccc2)cc(C(F)(F)F)n1	i	nt	3.5%
68	CCC(=O)NCCNC(=O)c1c(SC)nsc1SC	i	-0.5	3.9%
69	CC(C)CCn1c(CN2CCOCC2)nc2c1c(=O)n(C)c(=O)n2C	i	1.3	1.0%
70	CCOC(=O)c1sc(C)c2c1NC1(CCCCCC1)NC2=O	i	nt	-1.2%
71	CCc1nnc(NC(=O)CSc2nnc(C3CCCCC3)n2-c2cccc(Cl)c2)s1	i	nt	3.4%
72	CCOC(=O)c1c(-c2cccs2)csc1NC(=O)c1ccco1	i	0.51	0.1%
73	Cc1ccc(-c2nnn(CC(=O)O)n2)cc1	i	-0.23	-2.9%
74	CCC1CCCCN1CC(=O)c1c(C)[nH]c2ccccc12 (stereo unspecified)	i	-1.2	-2.0%
75	Cc1ccc(Cn2c(=S)[nH]c3ccc(N4CCOCC4)cc3c2=O)o1	i	0.85	-0.9%

# Already shown: entries from further up.
No.	canonical_smiles	MT1-MMP reporter	WNV protease inh	Hsc70
61	O=C(O)Cn1nc(-c2ccc(F)cc2)oc1=O	i	0.98	6.9%
62	CCOc1ccc(NS(=O)(=O)c2ccc(NC(=O)C3CCCO3)cc2)cc1 (stereo unspecified)	i	nt	3.6%

# Later entries
No.	canonical_smiles	MT1-MMP reporter	WNV protease inh	Hsc70
76	NC(=O)C1(N2CCCCC2)CCN(c2nc(-c3ccccc3)cs2)CC1	i	-1.1	2.9%
77	COc1ccc(NC(=O)CN(c2cccc(F)c2)S(C)(=O)=O)cc1OC	i	1.9	8.9%
78	COc1cccc2sc(Nc3nc(-c4ccccn4)cs3)nc12	i	1.5	0.8%
79	O=C(NC1CCCCC1)C(c1ccc(Cl)cc1)N1CCC2(CC1)OCCO2 (stereo unspecified)	i	nt	0.9%
80	O=C(CSc1nnnn1Cc1ccccc1)Nc1ccc2c(c1)OCCO2	i	-0.33	-2.9%
81	O=C(CCCC(=O)N(CC(=O)NC1CCCCC1)Cc1ccco1)Nc1ccccn1	i	0.37	-0.7%
82	CCOC(=O)C1=C(CC)OC(N)=C(C#N)C1c1cc(OC)ccc1OC (stereo unspecified)	i	1.6	-5.7%
83	CCC(=O)Nc1ccc(N2CCC(C)CC2)cc1	i	nt	0.3%
84	Cc1noc(C)c1COc1cccc(C(=O)Nc2ccc(C#N)cc2)c1	i	-0.47	2.7%
85	CCSc1nnc(NC(=O)CSc2nccn2-c2cc(C)cc(C)c2)s1	i	0.54	-1.9%
86	CC1CC(C)CN(C(=O)COC(=O)c2ccc[nH]c2=O)C1 (stereo unspecified)	i	nt	-2.1%
87	O=C1N(CN2CCC3(CC2)OCCO3)c2ccccc2C12OCCCO2	i	-0.17	11%
88	CCOC(=O)CCC(=O)c1c(C)oc2ccc(OC)cc12	i	1.4	-4.0%
89	c1ccc(Cc2nn3c(COc4ccccc4)nnc3s2)cc1	i	-2	-2.9%
90	c1csc(Cc2nc(-c3ccc(-n4cccc4)cc3)no2)c1	i	0.33	-1.4%
91	COc1ccc2c(c1)C(=O)OC2CC(=O)O (stereo unspecified)	i	-1.2	-0.1%
92	CCN(CC)CC(=O)n1c2c(c3ccccc31)CCCC2	i	-0.66	-0.6%
93	Cc1cccc(C#N)c1NC1=CC(=O)CC(C)(C)C1	i	0.03	2.5%
94	Cc1ccccc1-c1nc2ccccc2c(=O)n1C1CCS(=O)(=O)C1 (stereo unspecified)	i	0.52	-2.0%
95	CCC(C)NC(=O)c1ccc(CSCc2cccc(F)c2)o1 (stereo unspecified)	i	nt	-1.8%
96	Cc1cc(C)cc(NC(=O)CSc2nc3c(c(=O)n2C)SC(C)C3)c1 (stereo unspecified)	i	1.3	2.8%
97	Cc1ccc(O)c(NC(=O)CCCC(=O)O)c1	i	-1.1	-0.4%
98	Cc1ccc(C2/C(=C(/O)c3cnn(-c4ccccc4)c3C)C(=O)C(=O)N2CCN2CCOCC2)o1 (stereo unspecified)	i	-0.4	0.9%
99	CCOC(=O)c1ccc2c(c1)N(Cc1ccccc1C)C(=O)c1ccccc1S2=O (stereo unspecified)	i	0.66	0.1%
100	CC(C)(C)n1nnnc1C(c1ccccc1F)N1CCN(C2CCCC2)CC1 (stereo unspecified)	i	0.25	2.2%
101	COc1ccc(CN2C(=O)c3ccccc3C2C(=O)NCC2CCCO2)c(OC)c1 (stereo unspecified)	i	0.21	0.2%
102	CCOC(=O)C1CCN(c2nc(-c3ccccc3)nc3c2oc2ccccc23)CC1	i	0.01	0.0%
103	CC(C)C(=O)Nc1ccc(N2CCCC2)cc1	i	nt	5.0%
104	CCc1ccccc1OCC(=O)Nc1ccc(S(N)(=O)=O)cc1	i	1.7	-2.7%
105	Cc1cc(C)cc(OCc2nnc(SCC(=O)c3ccc(Br)cc3)o2)c1	i	-1.1	4.8%
106	CCOc1ccc(-c2nc(CSc3nncs3)cs2)cc1OC	i	-1.6	0.3%
107	CCC1(C)CC(CC(=O)O)(c2ccccc2OC)CCO1 (stereo unspecified)	i	0.94	3.1%
108	C=CCNC1=C(Cl)C(=O)N(c2ccccc2Cl)C1=O	i	-0.12	-4.0%

# Down the list, quoted from above.
# MT1-MMP reporter for nos. 92 to 101: i, i, i, i, i, i, i, i, i, i

# Four entries from above, with two lines to a compound.
# Value order: MT1-MMP reporter | WNV protease inh | Hsc70
91: COc1ccc2c(c1)C(=O)OC2CC(=O)O (stereo unspecified)
  i | -1.2 | -0.1%
92: CCN(CC)CC(=O)n1c2c(c3ccccc31)CCCC2
  i | -0.66 | -0.6%
93: Cc1cccc(C#N)c1NC1=CC(=O)CC(C)(C)C1
  i | 0.03 | 2.5%
94: Cc1ccccc1-c1nc2ccccc2c(=O)n1C1CCS(=O)(=O)C1 (stereo unspecified)
  i | 0.52 | -2.0%
